# VDR inh: Inhibitors of the vitamin D receptor (VDR): qHTS. VDR-SRC2-3 peptide fluorescence polarization, 2 h. AID 504847, 2011. Potency, µM, inactives show max response, negative = inhibition, hits mostly inhibitors. hit rate 0.93% among 400,000. Vitamin D3 receptor (Homo sapiens), P11473; active = well fitted inhibition curve with a large enough effect; inconclusive = small, poorly fitted or top-dose-only effect, or another doubt; inactive = no such curve, though single readings can be large or run the other way; also: series mostly up to about 120 µM
# Target sequence (P11473 whole entry, looked up): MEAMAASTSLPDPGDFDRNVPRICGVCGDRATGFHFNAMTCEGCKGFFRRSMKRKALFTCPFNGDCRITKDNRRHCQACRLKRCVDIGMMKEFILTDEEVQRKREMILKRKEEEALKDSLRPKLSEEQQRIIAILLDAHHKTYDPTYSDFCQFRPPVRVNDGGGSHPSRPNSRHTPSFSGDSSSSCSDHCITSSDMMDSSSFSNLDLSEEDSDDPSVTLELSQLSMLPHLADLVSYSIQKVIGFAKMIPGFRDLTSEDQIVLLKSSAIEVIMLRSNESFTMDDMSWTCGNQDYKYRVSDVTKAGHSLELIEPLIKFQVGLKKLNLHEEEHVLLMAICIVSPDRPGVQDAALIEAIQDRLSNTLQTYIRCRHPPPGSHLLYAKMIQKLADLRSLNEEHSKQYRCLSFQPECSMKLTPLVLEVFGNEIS
#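 Signal is fluorescence polarization, reporting how far test compounds block the interaction of VDR with the SRC2-3 coregulator peptide after a 2 h room-temperature incubation.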
# The depositor's hits bear a star; ? = inconclusive; & = joins results of further samples. % is scaled to controls: 0 for no effect and ±100 for the full control effect; potency is read from the fitted curve at half-maximal effect. An excerpt; the hit share may differ from the screen's.
nr	VDR inh	structure
1	7%	CC(C)C12CN3CC(C(C)C)(CN(C1)C3c1ccc([N+](=O)[O-])o1)C2=O (stereo not drawn)
2	-13%	CC(=O)NCCn1c(SCC(=O)NCCC2=CCCCC2)nc2ccccc2c1=O
3	1%	CCOc1ccc(C2C(C(=O)c3ccco3)=C(O)C(=O)N2CCCn2ccnc2)cc1OCC (stereo not drawn)
4	3%	Cc1nc2sc3c(=O)[nH]nnc3c2c(C)c1Br
5	-2%	COc1ccc(OC(=O)c2ccc3nsnc3c2)cc1
6	-1%	Cc1sc(NC(=O)c2ccccc2)c(C(=O)NC(C)C)c1C
7	-1%	O=C(O)c1ccc(NC(=O)c2ccc(Br)c(S(=O)(=O)N3CCCC3)c2)cc1
8	-4%	O=C(O)c1cc([N+](=O)[O-])ccc1C(=O)Nc1ccccc1
9	-10%	O=C(CN(Cc1ccc(F)cc1)C(=O)CCC(=O)Nc1nccs1)NCc1ccccc1
10	-19%	Cc1ccccc1OCc1nc2ccccc2n1C
11	1%	O=C(Nc1ccc2nc(-c3cccs3)c(-c3cccs3)nc2c1)N1CCCC1
12	-2%	CCN(CC)C(=O)CCS(=O)(=O)c1cccc2nonc12

# A draw from above in order of number of heavy atoms, rising.
nr	VDR inh	structure
4	3%	Cc1nc2sc3c(=O)[nH]nnc3c2c(C)c1Br
5	-2%	COc1ccc(OC(=O)c2ccc3nsnc3c2)cc1
8	-4%	O=C(O)c1cc([N+](=O)[O-])ccc1C(=O)Nc1ccccc1

# An excerpt of these results, field by field:
2: CC(=O)NCCn1c(SCC(=O)NCCC2=CCCCC2)nc2ccccc2c1=O
  VDR inh = -13%

3: CCOc1ccc(C2C(C(=O)c3ccco3)=C(O)C(=O)N2CCCn2ccnc2)cc1OCC (stereo not drawn)
  VDR inh = 1%

4: Cc1nc2sc3c(=O)[nH]nnc3c2c(C)c1Br
  VDR inh = 3%

5: COc1ccc(OC(=O)c2ccc3nsnc3c2)cc1
  VDR inh = -2%

# Other structures follow.
nr	VDR inh	structure
13	?	CCN(C(=O)CSc1nccc(=O)[nH]1)C1CCCCC1
14	3%	CSc1oc(-c2ccccc2)nc1C(N)=O
15	-8%	O=C(NC1CC1)c1cccc(NC(=O)c2cc(S(=O)(=O)N3CCOCC3)ccc2Cl)c1
16	-8%	Cc1ccc(C(=O)Nc2cccc(C(=O)N3CCOCC3)c2)cc1
17	-16%	COc1ccc(S(=O)(=O)Nc2ccc3c(c2)C(=O)N([C@H](C)CO)C[C@H](C)[C@@H](CN(C)C(=O)NC2CCCCC2)O3)cc1
18	-11%	CCCOC(=O)c1c(C)oc2c1cc(NS(=O)(=O)c1ccc(OCC)cc1)c1ccccc12
19	8%	CCCc1cc(C(=O)Nc2ccc(C(C)=O)cc2)no1
20	?	CSc1ncccc1C(=O)NC1CCCc2c1cnn2-c1ccc(C)c(C)c1 (stereo not drawn)
21	-26%	COc1ccccc1C1CCN(C(=O)c2cnn(-c3ccccc3)c2C)CC1
22	-8%	O=S(=O)(c1ccccc1)c1nc(-c2ccco2)oc1NCCCn1ccnc1
23	-7%	CC(C)(C)OC(=O)N(CCc1ccccc1)Cc1ccc(OCc2cccc(NC(=O)C3CCCC3)c2)cc1
24	5%	COC(=O)c1cc2occc2n1CC(=O)Nc1ccc(C)cc1C

# Continuation.
nr	VDR inh	structure
25	17%	CC(C)CCn1c(=O)c2sccc2n2c(CCCC(=O)NCCc3ccccc3)nnc12
26	7%	CCN(CC)CCCNC(=O)CNC(=O)c1nn(-c2ccc(OC)cc2)c(=O)c2ccccc12
27	13%	O=C(Nc1ccccc1)c1ccc(S(=O)(=O)NCC2CCCO2)cc1 (stereo not drawn)
28	-12%	O=C(c1cccc(S(=O)(=O)N2CCCCC2)c1)N1CCN(c2ccccc2)CC1
29	3%	O=C(Nc1cccc(F)c1)C1CCN(S(=O)(=O)c2ccc3[nH]c4c(c3c2)CCCCC4)CC1
30	-13%	COc1ccc2c(c1)CC[C@@H]1[C@@H]2CC[C@]2(C)[C@@H](NCCCCCCN3C(=O)C=CC3=O)CC[C@@H]12
31	-17%	COC(=O)c1ccc(Cn2nc(C)cc2C)cc1
32	-4%	COc1cc2c(cc1OC)CN(C(=O)Cc1ccccc1)CC2
33	-8%	Nc1nnnn1/N=C/c1cc(Cl)cc(Cl)c1OCc1ccc(Cl)cc1Cl
34	-13%	Cc1c(C(=O)N(Cc2ccc(Cl)cc2)C2CCS(=O)(=O)C2)oc2ccccc12 (stereo not drawn)
35	11%	CCCCNCCOCCOc1ccc(Cl)cc1Br
36	6%	O=c1c2ccc(Cl)cc2nc(-c2ccc([N+](=O)[O-])cc2)n1O

# Molecules above with a Cl atom:
nr	VDR inh	structure
15	-8%	O=C(NC1CC1)c1cccc(NC(=O)c2cc(S(=O)(=O)N3CCOCC3)ccc2Cl)c1
33	-8%	Nc1nnnn1/N=C/c1cc(Cl)cc(Cl)c1OCc1ccc(Cl)cc1Cl
34	-13%	Cc1c(C(=O)N(Cc2ccc(Cl)cc2)C2CCS(=O)(=O)C2)oc2ccccc12 (stereo not drawn)
35	11%	CCCCNCCOCCOc1ccc(Cl)cc1Br
36	6%	O=c1c2ccc(Cl)cc2nc(-c2ccc([N+](=O)[O-])cc2)n1O

# More structures
nr	VDR inh	structure
37	-16%	CCOC(=O)c1c(NC(=O)CN2C(=O)C(=O)N(C(C)C)C2=O)sc(C)c1CC
38	17%	CCc1ccc(NC(=O)c2cc(-c3ccc4c(c3)OCO4)on2)cc1
39	-1%	Cc1ccc(NCCN(C)C)c2c(=O)c3cc(O)ccc3sc12
40	18%	CCOC(=O)c1c(NC(=O)CSc2nncn2C)sc(C)c1C
41	-8%	COc1ccccc1NC(=S)NC1CCCCCC1
42	-13%	CC(C)(C)c1ccc(C(=O)NCCCNC(=O)c2ccco2)cc1
43	-11%	COc1ccc(S(=O)(=O)N/N=C(/C)c2ccc(Cl)cc2)cc1
44	-4%	Cc1ccccc1-c1nc(CS(=O)(=O)CC(=O)NCC(C)c2ccccc2)c(C)o1 (stereo not drawn)
45	0%	Cc1ccc(C(=O)N(Nc2nc3ccccc3s2)C(=O)c2ccc(C)cc2)cc1
46	13%	Cc1ccnc(NC(=O)c2ccc3c(c2)OCO3)c1
47	-16%	COc1ccc(CCNc2c(C)c(C)nc3ncnn23)cc1
48	-8%	Cc1cc(O)c(C=Nc2ccc(N3CCOCC3)cc2)c(C)c1Cl

# Next section.
nr	VDR inh	structure
49	-3%	C=CCn1c(SCC(=O)Nc2ccc(OC)cc2)nc2ccccc2c1=O
50	-7%&3%	O=c1c(O[C@@H]2O[C@H](CO)[C@@H](O)[C@H](O)[C@H]2O)c(-c2ccc(O)cc2)oc2cc(O)cc(O)c12
51	5%	CCOCCCNC(=O)C1CCN(c2nc3ccc(Cl)cc3[nH]2)CC1
52	2%	N#Cc1ccc(NC(=O)c2ccc3c(c2)nnn3C2CCCC2)cc1
53	-19%	CCCSc1ncnc2c1c(-c1ccccc1)cn2-c1ccccc1OC
54	-3%	Nc1cc(=O)nc(SCC(=O)N2CCN(c3ccccc3)CC2)n1-c1ccccc1
55	-2%	O=C1c2ccccc2C(=O)N1c1nccs1
56	-11%	COc1ccc(S(=O)(=O)N2CCC(C(=O)N[C@@H](C)C(=O)NCc3cccc(OC)c3)CC2)cc1
57	-3%	Cc1ccc(S(=O)(=O)N2CCOCC2)cc1C(=O)N1CCCC1
58	8%	COC(=O)c1cccc(N(C(=O)CNC(=O)c2cccs2)C(C(=O)NCC2CCCO2)c2ccc(OC)c(OC)c2)c1 (stereo not drawn)
59	-5%	CC(C)CCN1CC(O)=C(c2nc(-c3ccc(Cl)cc3)cs2)C1=N
60	18%	Cc1cc(C)c(Cn2c(C)c(CNCc3ccccc3C)c(C(=O)O)c2C)c(C)c1

# The results go on:
nr	VDR inh	structure
61	-15%	O=C(NCc1ccco1)C(c1ccccc1)N(CC1CCCO1)C(=O)Cn1nnc2ccccc21 (stereo not drawn)
62	-20%	CC(C)(C)OC(=O)N1CCC(c2c(C(=O)NCC3CCN(C4CCCC4)C3)cnn2-c2ccccc2Cl)CC1 (stereo not drawn)
63	8%	CCn1c(C)csc1=NC(=O)c1ccccc1
64	6%&-3%	COc1cccc(NS(=O)(=O)c2ccc3[nH]cc(C(=O)N(C)Cc4ccco4)c(=O)c3c2)c1
65	-6%	Cc1c(C(=O)N2CCCC2)c(S(=O)(=O)N2CCCCC2)c(C)n1C
66	10%	O=C(Nc1cccc(C(F)(F)F)c1)Nc1ccc2snnc2c1
67	-7%	CCc1ccc(NC(=O)COCc2cc(-c3ccc(F)cc3)on2)cc1
68	-4%	Nc1c(Cl)cc(-c2csc(N3CCCC3c3nc4cc(Cl)c(N5CCCCC5)cc4n3CCCO)n2)cc1Cl (stereo not drawn)
69	-7%	CC(C)(C)OC(=O)NCc1ccc(NC(=O)c2nc[nH]c2C(=O)NCCCCCCNC(=O)c2[nH]cnc2C(=O)Nc2ccc(CNC(=O)OC(C)(C)C)cc2)cc1
70	16%	CCOC(=O)c1ccc(NC(=O)COc2ccc(S(=O)(=O)NC(C)(C)C)cc2)cc1
71	40µM*	COc1ccc(CCNc2nc(C)c(C(C)=O)s2)cc1OC
72	-19%	NNC(=O)CSCc1nc(-c2ccc(Cl)cc2)cs1
73	13%	CN(NC1CC(=O)N(c2ccccc2)C1=O)c1ccccc1 (stereo not drawn)

# Some of the entries so far, tab-delimited.
entry	Compound	VDR inh
36	O=c1c2ccc(Cl)cc2nc(-c2ccc([N+](=O)[O-])cc2)n1O	6%
37	CCOC(=O)c1c(NC(=O)CN2C(=O)C(=O)N(C(C)C)C2=O)sc(C)c1CC	-16%
38	CCc1ccc(NC(=O)c2cc(-c3ccc4c(c3)OCO4)on2)cc1	17%
39	Cc1ccc(NCCN(C)C)c2c(=O)c3cc(O)ccc3sc12	-1%

# Screening data from PubChem.
